Screens (PubChem)
Mtb hypoxia rep = Mtb hypoxia fluorescent reporter inhibition; AID 1159583; fluorescence inhibition, % (test concentration not listed); M. tuberculosis hypoxia-regulated fluorescent reporter, fluorescence; actives 0.1% (n = 300,000);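 active = 35 to 45% if threefold the growth effect, above 45% if 1.5-fold the growth effect; inactive = the rest, general growth blockers included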;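 also: wells of about 50 µL received 100 nL stock; 0% = vehicle wells and 100% = reference inhibitor wells; whole bacteria with a GFP reporter of the hypoxia response; strong numbers were not always called active; many hits fall short of the cut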
Sa ugtP lethal = growth inhibition of S. aureus ugtP deletion strain | growth inhibition, % (concentration not given with the values) | actives 0.54% (n = 330,000) | S. aureus RN4220 ugtP deletion, OD600 growth, 16 h; some inactives read as strong as hits;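 active = z-score under -3 and OD600 up to 0.15 on both plates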;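 also: plate controls were untreated wells for no effect and antibiotic for full effect; wells of about 80 µL received 100 nL stock; the first replicate is given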
BJeLR viability = kills HRASV12-expressing BJeLR cells; BJeLR (HRASV12) viability, CellTiter-Glo ATP luminescence, 48 h; reference of the scale not given here; AID 1554; actives 0.17% (n = 300,000); inhibition, % (concentration not given with the values);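 active = replicate mean above 50%; inconclusive = above 50% but judged a plate artefact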;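 also: 50 nL library stock added to about 25 µL; numbers are from one replicate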
Autofluor counter = flagged as autofluorescent in microsphere protease counterscreen; compound autofluorescence counterscreen, microsphere flow cytometry; hits give high values; fluorescence intensity (test concentration not listed); actives 3.1% (n = 360,000);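 active = at least 3 SD above the mean of all compounds, about 16000 in these data; inconclusive = too few beads counted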;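 also: 100 nL of 1 mM stock went into each well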
Sa RN4220 lethal = kills Staphylococcus aureus RN4220; inhibition, % (no concentration beside the values); actives 0.33% (n = 330,000); S. aureus RN4220 growth, OD600, 16 h;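 active = z-score of -3 or lower and OD600 up to 0.18 on both plates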;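 also: plate controls were untreated cells for no effect and reference antibiotic for full effect; stock transfer was 100 nL into about 80 µL; one replicate is shown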
PrP UTR inh = inhibition of PrP 5' UTR reporter expression; cell-based PrP 5' UTR mRNA reporter, plate reader; inhibition, % (no concentration beside the values); actives 0.35% (n = 340,000);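 active = every replicate at 50% or more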;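 also: 0 = median of the neutral control wells; tested in H4 reporter cells; numbers are from one replicate; inactives centre near -14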
Mtb hypoxia rep growth = second read-out of Mtb hypoxia rep, no call of its own (marks repeat the call); growth inhibition, %; measured here: M. tuberculosis growth (absorbance);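 0% = vehicle and 100% = reference antibiotic; read after six days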
* hit, by the source's call; ? = inconclusive; / = no result given.

The first six compounds, ahead of the listing:
SMILES | Mtb hypoxia rep | Mtb hypoxia rep growth | Sa ugtP lethal | BJeLR viability | Autofluor counter | Sa RN4220 lethal | PrP UTR inh
CC(=O)c1cccc(NC(=O)CN2C(=O)NC(C)(C)C2=O)c1 | -10 | 1 | 4 | / | ? | 1.7 | -2
COc1cccc(C(=O)Nc2c3c(nn2-c2ccccc2C)CS(=O)C3)c1OC (stereo not drawn) | / | / | -4 | -6 | 3729 | -1.6 | -10
CC(C)(C)OC(=O)N1Cc2ccccc2C[C@H]1C(=O)O | / | / | 4 | 5 | 5271 | 1.7 | -16
O=C1C2C3C=CC(CC3)C2C(=O)N1c1ccccc1F (stereo not drawn) | 4 | 5 | 18 | -11 | 3434 | 0.8 | -18
CCC(C)c1ccc(NC(=S)Nc2ccc(OC)cc2)cc1 (stereo not drawn) | / | / | 12 | -5 | 8479 | 1.7 | -43
O=C(NCCCN1CCOCC1)c1cccc(S(=O)(=O)N2CCN(c3ccccc3)CC2)c1 | -1 | 1 | -1 | 5 | ? | -0.8 | -4

This part in full, from the first entry:
SMILES | Mtb hypoxia rep | Mtb hypoxia rep growth | Sa ugtP lethal | BJeLR viability | Autofluor counter | Sa RN4220 lethal | PrP UTR inh
CC(=O)c1cccc(NC(=O)CN2C(=O)NC(C)(C)C2=O)c1 | -10 | 1 | 4 | / | ? | 1.7 | -2
COc1cccc(C(=O)Nc2c3c(nn2-c2ccccc2C)CS(=O)C3)c1OC (stereo not drawn) | / | / | -4 | -6 | 3729 | -1.6 | -10
CC(C)(C)OC(=O)N1Cc2ccccc2C[C@H]1C(=O)O | / | / | 4 | 5 | 5271 | 1.7 | -16
O=C1C2C3C=CC(CC3)C2C(=O)N1c1ccccc1F (stereo not drawn) | 4 | 5 | 18 | -11 | 3434 | 0.8 | -18
CCC(C)c1ccc(NC(=S)Nc2ccc(OC)cc2)cc1 (stereo not drawn) | / | / | 12 | -5 | 8479 | 1.7 | -43
O=C(NCCCN1CCOCC1)c1cccc(S(=O)(=O)N2CCN(c3ccccc3)CC2)c1 | -1 | 1 | -1 | 5 | ? | -0.8 | -4
Cc1nc(NC(=O)c2ccc(Br)o2)ccc1Br | 13 | -12 | 13 | 10 | 5025 | 8.2 | -43
NS(=O)(=O)c1cccc(NC(=O)c2ccc(S(=O)(=O)N3CCCCCC3)cc2)c1 | 4 | 5 | 11 | / | 5476 | 6.8 | -5
Cc1cc(NCCCN)nc(-c2ccccc2O)n1 | 5 | 1 | -5 | -6 | 3217 | -12 | -39
CCOC(=O)c1c(NC(=O)CSc2nnc(C)s2)sc2c1CCCCC2 | 10 | 8 | 15 | -1 | 4031 | -4.1 | -8
COc1ccc(NC(=O)C2CCCN(c3ncccn3)C2)cc1 (stereo not drawn) | 8 | 16 | 10 | -8 | 5102 | 1.1 | -46
O=C(NC(=S)Nc1ccc2oc(-c3cccnc3)nc2c1)c1cccc(Cl)c1 | / | / | 77 | 0 | 2459 | -6.3 | -33
CC(Cc1ccccc1)C(=O)NC(CO)Cc1ccccc1 (stereo not drawn) | 12 | 2 | -3 | / | / | 10 | /
Cc1ccc(OCC(=O)N2CCN(c3nnc(-c4ccc(C)cc4)c4ccccc34)CC2)cc1 | -1 | 16 | -19 | -4 | 22360* | -10 | -23
O=C1NC(=O)N(c2ccccc2F)C(=O)/C1=C/c1ccc(Oc2ccc([N+](=O)[O-])cn2)cc1 | 1 | -1 | 12 | 9 | 2672 | 1.0 | -8
O=C(CC(=O)NN=C1CCCC1)NCCc1ccccc1 | 9 | 6 | -1 | -1 | 3773 | 2.3 | -19
O=C(CNc1cc(S(=O)(=O)N2CCOCC2)ccc1NCC1CCCO1)Nc1cccc(F)c1 (stereo not drawn) | -10 | -7 | -11 | 7 | ? | -4.8 | -13
O=C(O)CCN1C(=O)S/C(=C\c2cccnc2)C1=O | 2 | 4 | 8 | -8 | 4635 | 2.0 | -27
Cc1nc(-c2cccs2)sc1C(=O)O | 12 | 6 | 5 | 6 | 3995 | 4.3 | -10
O=C(NCc1ccco1)C1CCCN1C(=O)Nc1ccccc1 (stereo not drawn) | -5 | -5 | -1 | 1 | 4982 | 0.3 | -31
COc1ccccc1N1C(=O)c2ccccc2NC1C(OC)OC (stereo not drawn) | 4 | 3 | 1 | -13 | 4462 | 0.8 | -11
CCN(CC(=O)Nc1cccc(S(=O)(=O)N(C)c2ccccc2)c1)Cc1cccs1 | 12 | 8 | 6 | / | 6819 | -0.7 | -17
COc1ccc(NC(=O)CSc2nnc(-c3ccccc3F)n2C2CC2)cc1S(N)(=O)=O | -6 | 9 | 4 | -2 | 3968 | 0.6 | -86
COc1ccc2[nH]c3c(=O)n(CCCC(=O)NC4CCC(C)CC4)c(=S)[nH]c3c2c1 (stereo not drawn) | 16 | 3 | 3 | -2 | 6474 | 5.5 | -9
COc1ccc(C(CNC(=O)Cc2ccccc2Cl)N2CCCCC2)cc1 (stereo not drawn) | / | / | / | -6 | 3850 | / | -24
(cont.)
SMILES | Mtb hypoxia rep | Mtb hypoxia rep growth | Sa ugtP lethal | BJeLR viability | Autofluor counter | Sa RN4220 lethal | PrP UTR inh
O=C(Nc1ccccc1)Nc1nnc(Cc2ccccc2F)s1 | 14 | 8 | -1 | -2 | 3887 | 4.9 | -14
CC(C)c1ccc(NC(=O)C2CCCN(S(=O)(=O)c3cccnc3)C2)cc1 (stereo not drawn) | -8 | 9 | 1 | 4 | 5500 | 1.2 | 4
CN(C)CCCN(Cc1ccccc1)C(=S)Nc1cccc(C(F)(F)F)c1 | 4 | -1 | 7 | -2 | 2433 | 6.1 | 6
Cn1c(=O)c(-c2ccccc2)nn2c3ccccc3nc12 | / | / | -1 | 0 | 4794 | 3.8 | -42
O=C(Nc1nccs1)c1cnccn1 | 4 | 8 | 4 | 16 | 7966 | 3.3 | -17
O=C(Nc1nnc(-c2ccco2)o1)c1ccc(Cl)s1 | -2 | 7 | 2 | 13 | 5401 | 18 | 10
COc1ccccc1OCCSc1nc2ccccc2n1CC(N)=O | 15 | 10 | 19 | 9 | 3569 | 6.8 | -22
CC(=O)c1ccc(NC(=S)NC(=O)/C=C/c2ccccc2)cc1 | 15 | 20 | -23 | 0 | 4424 | -1.4 | -21
O=S1(=O)[C@H]2C[C@H](CO)O[C@@]2(CO)CN1Cc1ccc(-c2ccc(F)cc2)cc1 | 2 | 9 | -1 | / | 3813 | 1.1 | -5
COc1ccc(-c2csc3ncnc(N4CCN(S(=O)(=O)c5cccc(C(F)(F)F)c5)CC4)c23)cc1 | -3 | -8 | -3 | 5 | 4052 | 0.4 | -29
O=C(CCN1CCN(c2ccccc2F)CC1)Nc1ccccc1Cl | 11 | 4 | 2 | -6 | 4024 | 0.6 | -21
CCOC(=O)N1CCN(C(=O)CN(c2ccc(OC)c(OC)c2)S(C)(=O)=O)CC1 | 3 | -1 | 7 | 9 | 16773* | 1.6 | -7
CCc1sc(C(=O)Nc2cccnc2)cc1Br | -1 | -4 | 4 | -1 | 6383 | 6.4 | -50
CCN(CC)CCSc1nc(O)c(-c2ccccc2)c(=O)n1-c1ccccc1 | 2 | 4 | 4 | -4 | 4117 | 7.4 | -31
O=C(C1CCN(S(=O)(=O)c2ccccc2)CC1)N1CCOCC1 | 13 | -6 | 14 | -6 | 16459* | 5.7 | -1
O=C(Cc1ccccc1)Nc1cc(C(=O)c2ccccc2)ccc1N1CCOCC1 | 12 | 1 | 3 | -1 | 9517 | 4.4 | -22
CC(=O)Nc1ccc(S(=O)(=O)N2CCC(C(=O)NCCC(=O)NCc3ccncc3)CC2)cc1 | 9 | -12 | 2 | 2 | 4224 | -0.3 | 3
COc1ccccc1NC(=O)C(=NOCc1ccc(C#N)cc1)C(C)=O | -6 | 0 | 2 | / | / | 5.2 | /
O=C(O)CCCN1C(=O)C2C3CCC(O3)C2C1=O (stereo not drawn) | 8 | 5 | -1 | -12 | 10203 | 4.8 | -29
CCOc1cccc2c1OC1(CCCCC1)N1N=C(c3cccnc3)CC21 (stereo not drawn) | 17 | -4 | 2 | 9 | 2210 | 5.4 | -20
O=C(c1ccncc1)N(c1ccc2oc3c(c2c1)CCCC3)S(=O)(=O)c1cccc([N+](=O)[O-])c1 | 1 | 2 | 11 | 9 | 2432 | -7.9 | -22
Cn1cc(CCC(=O)NC2CC2)c2ccccc21 | 4 | -5 | 6 | 1 | 3958 | 1.6 | -4
O=C(NCCc1ccccc1)c1cccc2c1C(=O)c1ccc(N3CCOCC3)cc1S2(=O)=O | 6 | 7 | 0 | / | 2983 | 2.1 | -9
Cc1nc(SCC(=O)NC(=O)NCCC(C)C)c2c(-c3cccs3)csc2n1 | 1 | 2 | -6 | 5 | 2006 | 3.3 | -20
COc1cc2ccccc2cc1C(=O)Nc1ccc(CN2CCOCC2)cc1 | 11 | 8 | 3 | 4 | 4404 | 0.4 | -53

A second format for 2 compounds above.
Results follow in this order: Mtb hypoxia rep	Mtb hypoxia rep growth	Sa ugtP lethal	BJeLR viability	Autofluor counter	Sa RN4220 lethal	PrP UTR inh
> Cn1c(=O)c(-c2ccccc2)nn2c3ccccc3nc12
 : /	/	-1	0	4794	3.8	-42
> CC(=O)c1ccc(NC(=S)NC(=O)/C=C/c2ccccc2)cc1
 : 15	20	-23	0	4424	-1.4	-21

The results go on:
SMILES | Mtb hypoxia rep | Mtb hypoxia rep growth | Sa ugtP lethal | BJeLR viability | Autofluor counter | Sa RN4220 lethal | PrP UTR inh
O=C(/C=C\c1ccc2c(c1)OCO2)Nc1c2c(nn1-c1ccc(Cl)cc1)CSC2 | 1 | 12 | -5 | 6 | 5885 | 1.6 | -10
COc1ccc([N+](=O)[O-])cc1N(CC(O)CN1CCCC1)S(=O)(=O)c1ccc(C)cc1 (stereo not drawn) | -14 | 2 | 1 | -8 | 5100 | 1.7 | -13
O=C(CN1CCSCC1)N/N=C/c1ccc(F)c(F)c1 | / | / | / | 7 | 10651 | / | -5
O=C(Nc1ccccc1-c1nnn(CC(=O)N2CCCc3ccccc32)n1)c1cccc(Cl)c1 | / | / | 1 | -5 | / | 0.1 | /
Cc1ccc(C(=O)N2CCN(c3ccc(NC(=O)c4cccnc4)cc3)CC2)cc1 | / | / | 5 | -4 | 4701 | 3.4 | -8
Cc1cc(C)cc(NC(=O)C(=S)NCc2ccccc2)c1 | / | / | / | 1 | 4325 | / | -5
Cc1c(O)c(CN2CCCC2)cc2c1oc(=O)c1ccccc12 | 2 | 2 | -8 | 4 | 11050 | -0.3 | 6
O=C(CSc1nc2ccccc2n1Cc1ccc(Cl)cc1)NN=Cc1ccccc1C(=O)O | 12 | 2 | 0 | / | / | 14 | /
COc1ccc(OC)c(/C=C2\N=C(c3ccccc3)OC2=O)c1 | 5 | 3 | 2 | 2 | 4261 | 3.2 | -19
Cc1noc(C)c1-c1ccc2ncnc(NCC3CCCCN3C)c2c1 (stereo not drawn) | -3 | 2 | 6 | / | 3933 | 7.1 | -55
O=C(NC(=S)Nc1ccc(NC(=O)c2cccs2)cc1)c1ccc([N+](=O)[O-])cc1 | / | / | -12 | -11 | 8973 | -4.1 | -13
Cc1cc(C)c2c(=O)n(CC(=O)Nc3ccc(Br)c(C)c3)sc2n1 | -7 | -13 | -6 | -7 | 3475 | 0.8 | -24
O=C(OCC(=O)c1c[nH]c2ccccc12)c1cccc(S(=O)(=O)N2CCCCCC2)c1 | 8 | 10 | -9 | -2 | 9631 | -0.2 | -46
COc1ccccc1CNC(=O)CCS(=O)(=O)c1cccs1 | -4 | 4 | 1 | 1 | 7103 | 2.4 | -4
O=C(c1ccc(S(=O)(=O)N2CCOCC2)cc1)N1CCN=C1SCc1cccnc1 | / | / | 0 | 4 | 3651 | 0.4 | -11
O=C(O)C1CCN(C(=O)CCc2ccccc2)CC1 | 18 | 10 | 2 | 7 | 3172 | 3.7 | -8
CCNc1nc(NCC)nc(N/N=C/c2ccc(Br)cc2)n1 | / | / | / | 7 | 3593 | / | -12
CCCCN(C)CCCNC(=O)/C=C1\Sc2ccccc2NC1=O | 2 | 5 | 3 | -6 | 4043 | 3.1 | -11
